B2AR ag – beta2AR agonists driving receptor internalization, primary screen, cell-based, FAP fluorogen, flow cytometry; 340,000 compounds, 0.43% hits; Am2.2-beta2AR cells; reference of the scale not given here; Beta-2 adrenergic receptor (Homo sapiens), P07550; response, % (concentration not given with the values);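 active means response above a set limit, near 3 SD of response in nonfluorescent compounds, cut at about 42% in these data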;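 further: stock transfer was 100 nL into about 11 µL; a reference agonist was the positive control; negative values mostly stem from fluorescent compounds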
UCH37 DUB inh – inhibitors of human UCH37 deubiquitinase, primary screen, biochemical, Ub-AMC cleavage, fluorescence | Ubiquitin carboxyl-terminal hydrolase isozyme L5 (Homo sapiens), Q9Y5K5 | purified proteasome/UCH37 | 330,000 compounds, 0.33% hits | inhibition, % (no concentration beside the values);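 active means mean of two replicates above 20%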;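 further: 0% = compound-free wells with enzyme and 100% = wells lacking proteasome; stock transfer was 100 nL into about 20 µL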
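system = Proteasome-associated human UCH37 deubiquitinase | amount = 0.15 nM proteasome as dispensed | medium = pH 7.4 Tris-HCl (50 mM) with ovalbumin, ATP-MgCl2, DTT | incubation = 30 min preincubation with enzyme, 25 min cleavage at room temperature | detection = AMC fluorescence 355/460 nm | read-out basis = percent inhibition | controls = no-proteasome and no-compound wells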
FGF22 binding – binders of human FGF22 protein, primary screen, FGF22 synaptogenesis inhibitor project, biophysical, thermal shift, single point. recombinant FGF22 thermal shift, SYPRO orange fluorescence; percent of sucrose octasulfate shift, DMSO zero. AID 651658, 2012. Fibroblast growth factor 22 (Homo sapiens), Q9HCT0. calls only at 9.99 µM. 340,000 compounds, 1.5% hits;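 active means melting point raised past a set limit in the mean and every replicate; inconclusive means no clear call; three in four hits are not shown here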
Target sequence (Q9HCT0 whole entry, looked up): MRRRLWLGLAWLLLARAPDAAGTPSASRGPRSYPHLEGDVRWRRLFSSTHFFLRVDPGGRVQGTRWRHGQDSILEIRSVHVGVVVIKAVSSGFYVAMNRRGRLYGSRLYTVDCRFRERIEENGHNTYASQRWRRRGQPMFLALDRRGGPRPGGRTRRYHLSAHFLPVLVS
ALR inh – inhibitors of human ALR sulfhydryl oxidase, primary screen, biochemical, H2O2 detection, HRP-luminol luminescence, single point; purified ALR, DTT oxidation; inhibition, % (test concentration not listed); AID 485317, 2010; 290,000 compounds, 3.8% hits; FAD-linked sulfhydryl oxidase ALR (Homo sapiens), P55789;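 active means mean and each replicate at 75% or more; inconclusive means only one of the two met; inactive means neither met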;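 further: stock transfer was 7.5 nL into about 7.5 µL; 0% = neutral wells and 100% = wells with inactivated enzyme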
Target sequence (P55789 whole entry, looked up): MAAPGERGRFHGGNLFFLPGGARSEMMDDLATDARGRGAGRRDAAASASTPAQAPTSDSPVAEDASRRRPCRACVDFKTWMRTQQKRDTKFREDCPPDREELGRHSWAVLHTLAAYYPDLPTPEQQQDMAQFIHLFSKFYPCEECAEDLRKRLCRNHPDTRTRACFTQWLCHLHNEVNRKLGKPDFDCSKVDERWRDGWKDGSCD
E coli growth – E. coli growth inhibition, primary screen, OD600; Escherichia coli growth, 23 h; stronger effect = lower value; OD600 absorbance (concentration not given with the values); 330,000 compounds, 0.21% hits; AID 1053175, 2014;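 active means OD600 absorbance below the run mean of sample wells minus 3.6 SD, in any replicate, cut at about 0.56 in these data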;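 further: stock transfer was 300 nL into about 60 µL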
HNF4A DNA FP – change in binding of human HNF4A to DNA, primary screen, biochemical, fluorescence polarization, FITC-DNA. Hepatocyte nuclear factor 4-alpha (Homo sapiens), P41235. 1 h. activity change, % at 10 µM. 360,000 compounds, 0.3% hits. AID 1224865, 2016; in the data active means activity change above about 30%, passing the limit was not always enough;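 further: controls were the assay level and a saturating level of protein; the project sought stronger binding though the title names inhibitors; some compounds called inactive have numbers as strong as hits; positive values seem to mean higher polarization but the record does not say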
Target sequence (P41235 whole entry, looked up): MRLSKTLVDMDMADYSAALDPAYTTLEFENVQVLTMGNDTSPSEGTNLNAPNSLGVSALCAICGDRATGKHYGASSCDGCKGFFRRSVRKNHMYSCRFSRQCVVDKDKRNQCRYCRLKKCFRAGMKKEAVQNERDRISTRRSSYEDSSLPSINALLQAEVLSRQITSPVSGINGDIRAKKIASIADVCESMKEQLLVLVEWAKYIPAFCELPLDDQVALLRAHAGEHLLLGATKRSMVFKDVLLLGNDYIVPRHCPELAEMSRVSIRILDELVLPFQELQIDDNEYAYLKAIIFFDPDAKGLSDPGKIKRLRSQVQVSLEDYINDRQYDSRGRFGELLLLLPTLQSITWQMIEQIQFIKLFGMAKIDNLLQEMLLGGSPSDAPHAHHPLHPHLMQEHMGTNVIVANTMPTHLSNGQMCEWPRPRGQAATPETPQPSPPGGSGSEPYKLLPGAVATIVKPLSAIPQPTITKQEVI
LANA-H2A inh – blockers of LANA interaction with H2A/H2B – biochemical, FP readout, HTS, primary screen. 320,000 compounds, 0.6% hits. cell-free LANA-H2A/H2B peptide, fluorescence polarization. inhibition, % (test concentration not listed). Protein LANA1 (Human herpesvirus 8 type P (isolate GK18)), Q9QR71; in the data active means inhibition mostly above about 10%, no sharp cut-off; inactive means mostly below about 6.7%;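 further: stock transfer was 7.5 nL into about 10 µL; 0% = median of vehicle wells and 100% = median of positive control wells; one replicate is shown; the record names a cut of 25% in any replicate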
Active calls of the source: *; i = inactive; ? = inconclusive; . = not tested or not shown. These rows are one share of the data; count on the stated rates, not on these rows.

SMILES | B2AR ag | UCH37 DUB inh | FGF22 binding | ALR inh | E coli growth | HNF4A DNA FP | LANA-H2A inh
O=C(CCSc1ccc(F)cc1)NNC(=O)c1ccccc1Cl | 3.5 | 1.0 | i | -5.9 | 0.676 | 3.4 | -0.9
O=S(=O)(c1ccc(-c2csc(Nc3ccc(F)cc3)n2)cc1)N1CCCC1 | 2.0 | -16.2 | i | . | 0.71 | 2.0 | 1.1
Cc1cccc(OCC(=O)Nc2ccc3c(c2)nc(CCN2CCC(C)CC2)n3C)c1 | 2.0 | 4.9 | i | 4.5 | 0.678 | 3.6 | -4.2
COCC(=O)Nc1ccccc1C#N | 7.7 | 5.8 | . | -5.9 | 0.719 | 0.2 | 1.4
COc1ccc(NC(=O)c2cc(S(=O)(=O)N3CCCCC3)ccc2OC)cc1 | 4.3 | 2.4 | i | -1.3 | 0.633 | 5.6 | -6.1
Cn1cccc1CC(=O)NNC(=S)NC(=O)c1ccc(F)cc1 | 3.6 | -1.1 | i | 94.8* | 0.623 | 1.9 | 2.4
COc1cc(/C=C/C(=O)O)cc(S(=O)(=O)Nc2ccc3c(c2)CCC3)c1OC | 1.7 | 2.0 | i | . | 0.714 | 3.9 | -1.5
CC(C)(C)CC(=O)Nc1nnc(-c2cccs2)s1 | -2.9 | -33.7 | . | -7.6 | 0.747 | -2.3 | 1.1
CCNC(=S)N(Cc1ccc2c(c1)OCO2)C1CC(=O)N(c2ccc(OC)cc2)C1=O (stereo unspecified) | 3.5 | 1.8 | . | -1.2 | 0.712 | -0.1 | -2.1
COc1ccccc1C(=O)NCCC(=O)N(C)Cc1cccs1 | -6.6 | 0.7 | i | -5.2 | 0.689 | -0.5 | 1.5
COc1ccccc1C(=O)NC(=O)OCCn1c(C)cnc1[N+](=O)[O-] | 2.7 | 4.5 | i | -4.7 | 0.709 | 11.4 | -0.1
COc1cn(-c2ccccc2)nc1C(=O)Nc1ccc(C)cc1 | -5.5 | -4.5 | i | -28.6 | 0.66 | 1.1 | -1.4
S=C(NCCc1ccccc1)Nc1ccc(Nc2ccccc2)cc1 | -6.7 | 2.4 | . | 97.9* | 0.667 | -1.6 | -1.0
Nc1nnc(SCC(=O)Nc2ccc(N3CCOCC3)cc2)s1 | 29.9 | 1.4 | i | ? | 0.676 | 0.5 | -2.4
O=C(/C=C/c1ccc(-c2ccccc2[N+](=O)[O-])o1)c1ccc(Br)cc1 | 1.5 | 8.2 | . | -4.7 | 0.625 | 0.7 | -2.2
O=C(NCCC(=O)N(CCc1ccccc1)Cc1ccccc1)c1ccc([N+](=O)[O-])cc1 | -4.6 | -2.4 | i | 0.2 | 0.723 | 2.5 | 5.1
COc1cccc(CC(NC(C)=O)C(=O)NC2CCN(C(=O)C3CCCCC3)CC2)c1OC (stereo unspecified) | 5.2 | 1.4 | i | . | 0.659 | -1.1 | .
Cc1nc2ccc(C(=O)OCC(=O)N(C)c3ccccc3)cc2nc1C | -7.5 | 2.8 | i | . | 0.641 | 1.2 | .
CCOc1cc(NC(=S)NCc2ccco2)c(OCC)cc1NC(=O)CC(C)C | -3.3 | 1.4 | . | -13.4 | 0.688 | 6.0 | -9.4
CCOC(=O)c1ccc2c(c1)nc(COc1ccc3ccccc3c1)n2CC | -2.4 | 2.9 | . | -2.8 | 0.764 | 5.0 | -2.0
CCC1(C)N(O)C(C)(C)C(c2ccc(OC)cc2)=[N+]1[O-] (stereo unspecified) | -0.1 | 5.3 | . | 3.5 | 0.666 | -1.5 | -1.4
O=C(CCNC(=O)c1ccc(Cl)cc1)NCCC1=CCCCC1 | -5.2 | 2.3 | . | 18.1 | 0.635 | -0.3 | -3.9
CC(=O)N1C(=S)NC(=O)/C1=C1/C(=O)N(CC(=O)Nc2cccc(C)c2)c2ccccc21 | 5.2 | 4.7 | i | -2.7 | 0.695 | 0.5 | -1.4
CC(C)Oc1cccc(C(=O)C2CCCN(Cc3ccc4nonc4c3)C2)c1 (stereo unspecified) | -2.1 | 1.7 | i | -3.6 | 0.715 | -1.2 | -1.8
O=C(NCCS(=O)(=O)N1CCN(c2ccc(F)cc2)CC1)c1ccco1 | -3.7 | 1.1 | i | 9.1 | 0.642 | -2.1 | -5.4

Already shown: entries from further up.
SMILES | B2AR ag | UCH37 DUB inh | FGF22 binding | ALR inh | E coli growth | HNF4A DNA FP | LANA-H2A inh
CCC1(C)N(O)C(C)(C)C(c2ccc(OC)cc2)=[N+]1[O-] (stereo unspecified) | -0.1 | 5.3 | . | 3.5 | 0.666 | -1.5 | -1.4
O=C(CCNC(=O)c1ccc(Cl)cc1)NCCC1=CCCCC1 | -5.2 | 2.3 | . | 18.1 | 0.635 | -0.3 | -3.9
CC(=O)N1C(=S)NC(=O)/C1=C1/C(=O)N(CC(=O)Nc2cccc(C)c2)c2ccccc21 | 5.2 | 4.7 | i | -2.7 | 0.695 | 0.5 | -1.4
CC(C)Oc1cccc(C(=O)C2CCCN(Cc3ccc4nonc4c3)C2)c1 (stereo unspecified) | -2.1 | 1.7 | i | -3.6 | 0.715 | -1.2 | -1.8
O=C(NCCS(=O)(=O)N1CCN(c2ccc(F)cc2)CC1)c1ccco1 | -3.7 | 1.1 | i | 9.1 | 0.642 | -2.1 | -5.4

The list goes on.
SMILES | B2AR ag | UCH37 DUB inh | FGF22 binding | ALR inh | E coli growth | HNF4A DNA FP | LANA-H2A inh
CC(=O)NCC(=O)N(c1ccccc1)C1(C(=O)NC2CCCCC2)CCCCC1 | 1.2 | 0.4 | . | -6.4 | 0.729 | -0.2 | 16.0
CC(=O)c1ccccc1NC(=O)CSc1n[nH]c(=O)n1C1CC1 | 7.9 | 3.7 | i | -2.7 | 0.634 | -2.5 | 13.4
Cc1ccc(NCc2nc3ccccc3n2C)cc1C | 4.0 | 2.6 | i | 98.2* | 0.643 | -0.3 | 3.4
Cc1cccc(C)c1NC(=O)CN1C(=O)C2CC=CCC2C1=O (stereo unspecified) | 5.7 | -0.4 | i | . | 0.66 | -3.4 | 1.6
CC(C)OC(=O)c1cc2ccccc2[nH]1 | 0.4 | -1.8 | . | -5.5 | 0.718 | 0.3 | 0.4
O=C(Nc1ccon1)c1cccc(C(F)(F)F)c1 | -12.1 | 0.8 | . | -11.8 | 0.688 | 1.8 | -1.1
C/C(=N\NC(N)=S)c1cc(-c2ccccc2)c(-c2ccccc2)s1 | 0.4 | . | i | -10.1 | . | -6.5 | -1.2
Cc1cc(C)cc(NC(=O)Cc2ccc(-n3cccc3)cc2)c1 | -4.9 | 3.3 | . | -8.5 | 0.702 | 0.5 | -0.3
CCCC(=O)Nc1ccc(S(=O)(=O)Nc2nccs2)cc1 | -2.1 | 2.1 | i | -2.3 | 0.682 | -1.3 | -0.1
COc1ccc(C(=O)Nc2ccc3c(c2)Cc2ccccc2-3)cc1 | 11.2 | -45.0 | . | 4.6 | 0.777 | 2.8 | 4.8
CC(C)NCC#CCOc1ccc(Cl)cc1 | 13.4 | 0.6 | i | -2.5 | 0.636 | -2.4 | 2.4
COc1ccc(CCNC(=O)COc2ccc(S(=O)(=O)NC3CCCCC3)cc2Cl)cc1 | 7.4 | 1.1 | . | 1.0 | 0.685 | 1.0 | 3.2
N/C(=N\OC(=O)Oc1ccccc1)c1ccc(Br)cc1 | -0.1 | 4.6 | . | -8.6 | 0.738 | -2.5 | -1.1
COc1ccc(/C(O)=C2/C(=O)C(=O)N(CCN(C)C)C2c2ccc(F)cc2)cc1Cl (stereo unspecified) | -3.5 | 8.7 | . | 1.9 | 0.672 | 2.1 | 4.7
C/C(=N\NS(=O)(=O)c1ccc([N+](=O)[O-])cc1)c1cccs1 | 19.6 | . | i | 61.6 | . | -3.3 | 6.9
CCCCNC(=O)c1sc2nc(C)cc(COC)c2c1-n1cccc1 | -23.3 | 5.1 | . | -16.1 | 0.683 | 0.6 | 0.3
Cc1c(-c2cc(C(=O)O)no2)cnn1C | 1.8 | 1.3 | i | 28.8 | 0.655 | -1.6 | -3.3
COC(=O)CCCNS(=O)(=O)c1ccc2ccccc2c1 | 9.6 | -1.5 | . | -4.7 | 0.765 | -0.5 | -1.7
CCN1/C(=C/c2ccc3ccccc3[n+]2CCCS(=O)(=O)[O-])C=Cc2cc(C)ccc21 | -10.7 | 8.0 | i | 16.7 | 0.65 | 7.3 | -7.5
CCn1c(=O)cc(OCC(=O)N2CCN(c3ccc(F)cc3)CC2)c2ccccc21 | -8.7 | 4.5 | i | 12.2 | 0.654 | -0.9 | 9.0
Cn1c(N)c(C(=O)COC(=O)c2ccc(F)cc2Cl)c(=O)n(C)c1=O | -7.8 | 1.5 | i | 8.2 | 0.717 | 0.4 | -6.3
COc1ccc(C(CNC(=O)C(C)(C)Oc2ccc(Cl)cc2)N2CCCC2)cc1 (stereo unspecified) | 14.3 | 1.9 | i | -4.1 | 0.668 | 0.1 | 3.0
O=C(CSc1nc2c(c(C(F)(F)F)n1)CCc1ccccc1-2)NCc1ccc(F)cc1 | -2.0 | 1.3 | . | . | 0.685 | 1.6 | 1.2
C=CCOC(=O)C1=C(C)OC(N)=C(C#N)C1c1ccco1 (stereo unspecified) | -2.5 | 4.0 | i | -1.2 | 0.666 | 0.6 | 4.2
COc1ccccc1NC(=O)CCNS(=O)(=O)c1ccc2c(c1)CC(C)N2C(=O)C1CC1 (stereo unspecified) | -3.9 | -1.8 | i | -0.6 | 0.683 | 0.6 | 2.6
SMILES | B2AR ag | UCH37 DUB inh | FGF22 binding | ALR inh | E coli growth | HNF4A DNA FP | LANA-H2A inh
CN(C(=O)COC(=O)c1n[nH]c2ccccc12)c1ccccc1 | -4.9 | 5.0 | i | -3.4 | 0.703 | -0.2 | 2.5
COc1ccc(-c2cc(-c3nc4ccccn4c3NCc3ccccc3)ccc2OC)cc1 | 66.0* | . | i | -0.1 | . | -2.5 | 13.9
O=C(CSC1=NCCN1)Nc1ccccc1[N+](=O)[O-] | 1.3 | 11.8 | i | 99.5* | 0.714 | 4.3 | -0.9
Cn1nnnc1SCc1csc(Nc2ccccc2)n1 | -6.2 | 0.9 | . | 90.2* | 0.709 | 1.9 | -0.8
Cc1ccn(CC(=O)O)c(=O)c1 | -1.5 | 3.5 | . | . | 0.696 | -4.5 | 1.4
CSCCC(N=C1NS(=O)(=O)c2ccccc21)C(=O)N1CCCC(C(N)=O)C1 (stereo unspecified) | -0.6 | 1.6 | i | -10.5 | 0.7 | 2.8 | -4.0
CN(CC1CCCN(CCc2ccc(Cl)cc2)C1)C(=O)C(=O)c1ccco1 (stereo unspecified) | 3.4 | 0.2 | i | -11.0 | 0.65 | 3.4 | -0.3
CCC1CCC(N2CCN(c3ccc([N+](=O)[O-])cc3)CC2)CC1 (stereo unspecified) | 4.0 | 5.2 | i | -4.4 | 0.635 | 0.4 | 0.3
CC(=O)c1ccccc1NS(=O)(=O)c1c(C)nn(-c2ccccc2)c1C | -3.7 | 0.4 | . | 2.2 | 0.74 | -6.4 | -1.4
CC(C)(C)c1ccc(S(=O)(=O)NCc2ccc(C(=O)N3CCCC3)cc2)cc1 | -12.7 | 0.1 | i | 1.3 | 0.716 | 0.4 | 1.1
Cc1ccc(-c2nc3ncccc3o2)cc1NC(=O)c1ccccc1 | -17.5 | -8.4 | i | -3.0 | 0.741 | -3.7 | -3.4
Cc1ccc(S(=O)(=O)NCC(=O)N2CCN(S(=O)(=O)c3ccc(Cl)cc3)CC2)cc1C | -3.9 | -1.1 | i | -1.3 | 0.673 | 0.9 | -0.4
COc1ccc(Cl)cc1S(=O)(=O)N1CCCC(C(=O)NCc2ccccn2)C1 (stereo unspecified) | 0.6 | 2.8 | i | 0.7 | 0.642 | -2.3 | -0.7

Screening data (PubChem)
